Calb FLC: affects C. albicans growth with fluconazole; C. albicans CaCi-2 (fluconazole-resistant clinical isolate) + fluconazole, Alamar Blue growth, 48 h; growth inhibition, % (test concentration not listed); 0.57% of 300,000 active; AID 1979;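 active = most replicates above 75%; inconclusive = exactly half above 75%; inactive = most below 75%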;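 also: all wells also contain fluconazole at 8 µg/ml as a sub-toxic cotreatment; 0% = median of DMSO wells and 100% = median of geldanamycin control wells; wells of about 8 µL received 7.5 nL stock; the first replicate is given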
LANA-H2B inh: blocks KSHV LANA binding to histone H2A/H2B; inhibition, % (concentration not given with the values); 0.6% of 320,000 active; cell-free LANA-H2A/H2B peptide, fluorescence polarization; Q9QR71; in the data active = inhibition mostly above about 10%, no sharp cut-off; inactive = mostly below about 6.7%;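 also: stock transfer was 7.5 nL into about 10 µL; 0% = median of vehicle wells and 100% = median of positive control wells; one replicate is shown; the record names a cut of 25% in any replicate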
A1 inh: inhibitors of the anti-apoptotic protein A1, read as caspase activation; MEF A1-2A-BIM cells, Caspase-Glo 3/7 luminescence, 3 h; percent of clofoctol response, vehicle zero; caspase activation, % (test concentration not listed); 0.066% of 330,000 active;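 active = over half of replicate activation scores above 10%, or exactly half above 10 with the replicate mean above 10; inconclusive = replicate mean below 10 yet half the replicates above 10; inactive = over half of replicates below 10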;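 also: wells of about 30 µL received 50 nL stock; many hits fall short of the cut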
Beta cell apopt: blocks beta cell apoptosis; INS-1E cytokine-induced death, ATP luminescence, 48 h; percent of positive-control rescue, neutral wells zero; protection from apoptosis, % (test concentration not listed); 0.8% of 300,000 active; AID 435005;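 active = all replicates at 75% or more, or half of them and the mean; inconclusive = half reach 75% but not the mean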;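 also: 0% = cytokine-treated negative control wells and 100% = positive control rescue; higher means more ATP so stronger rescue from cytokine killing; wells of about 40 µL received 100 nL stock; the first replicate is given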
ALR H2O2 inh: blocks human ALR sulfhydryl oxidase activity. P55789. purified ALR, DTT oxidation, H2O2 HRP-luminol luminescence. inhibition, % (concentration not given with the values). 3.8% of 290,000 active;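 active = mean and each replicate at 75% or more; inconclusive = only one of the two met; inactive = neither met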;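 also: stock transfer was 7.5 nL into about 7.5 µL; 0% = neutral wells and 100% = wells with inactivated enzyme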
Target sequence (P55789 whole entry, looked up): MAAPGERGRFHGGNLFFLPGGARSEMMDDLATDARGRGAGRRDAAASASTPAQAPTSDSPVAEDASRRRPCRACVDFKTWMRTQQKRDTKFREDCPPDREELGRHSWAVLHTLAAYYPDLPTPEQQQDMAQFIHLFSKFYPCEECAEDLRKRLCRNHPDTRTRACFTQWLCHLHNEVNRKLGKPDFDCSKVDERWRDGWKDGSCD
Ecoli rRNA inh: inhibits bacterial ribosomal RNA function over humanized ribosomes | E. coli WT GFP vs humanized-ribosome RFP mutants, fluorescence, 24 h; active compounds read low; DMSO median 0, no signal -100 | GFP signal change (wild-type ribosome), % (concentration not given with the values) | 1.6% of 350,000 active | AID 720706;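 active = significant combined selectivity score with lowered wild-type GFP, culture density cut under 30%, mutant RFP and density less affected; inactive = any of these conditions unmet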; also: one replicate is shown; some compounds called inactive have numbers as strong as hits
B2AR ag: activates human beta-2 adrenergic receptor causing internalization; P07550; Am2.2-beta2AR cells, FAP receptor internalization, flow cytometry; reference of the scale not given here; response, % (no concentration beside the values); AID 504454; 0.43% of 340,000 active;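 active = response above a set limit, near 3 SD of response in nonfluorescent compounds, cut at about 42% in these data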;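 also: stock transfer was 100 nL into about 11 µL; a reference agonist was the positive control; negative values mostly stem from fluorescent compounds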
Target sequence (P07550 whole entry, looked up): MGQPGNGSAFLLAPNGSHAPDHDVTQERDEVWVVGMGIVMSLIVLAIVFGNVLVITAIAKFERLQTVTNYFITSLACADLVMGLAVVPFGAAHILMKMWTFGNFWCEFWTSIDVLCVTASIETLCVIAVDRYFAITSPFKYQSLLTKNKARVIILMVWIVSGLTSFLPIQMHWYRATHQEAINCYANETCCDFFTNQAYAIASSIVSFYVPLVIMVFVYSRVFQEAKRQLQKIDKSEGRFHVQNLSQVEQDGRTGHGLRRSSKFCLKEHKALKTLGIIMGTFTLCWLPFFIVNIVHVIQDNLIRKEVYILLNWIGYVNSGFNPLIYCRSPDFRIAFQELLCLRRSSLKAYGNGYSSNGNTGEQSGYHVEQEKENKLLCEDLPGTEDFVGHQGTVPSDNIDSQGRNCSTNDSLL
T cruzi repl: T. cruzi replication inhibition. AID 1885. inhibition, % (no concentration beside the values). T. cruzi beta-gal in NIH3T3, luminescence, 90 h. 1.4% of 300,000 active;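 active = mean inhibition across valid replicates above about 55%, limit read from the data; inconclusive = mean below that limit but half or more replicates reach it; inactive = mean below it, under half of replicates reach it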;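 also: signal also drops with host cell toxicity which is not excluded here; 0% = plate median of DMSO wells and 100% = zero luminescence signal; higher percent means less beta-gal luminescence so fewer parasites; stock transfer was 50 nL into about 50 µL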
Ecoli rRNA inh OD600: second read-out of Ecoli rRNA inh, no call of its own (marks repeat the call); OD600 change, %; measured here: OD600 growth;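 optical density of the mix in the first replicate; 0 = DMSO median and -100 = no signal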
Ecoli rRNA inh RFP: further read-out of Ecoli rRNA inh, marked with its call; RFP signal change, %; measured here: RFP humanized mutant strains;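 first replicate; 0 = DMSO median and -100 = no signal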
Starred values were filed as active, the others as inactive; i = inactive; u = inconclusive; x = not tested or not shown.

SMILES	Calb FLC	LANA-H2B inh	A1 inh	Beta cell apopt	ALR H2O2 inh	Ecoli rRNA inh	Ecoli rRNA inh OD600	Ecoli rRNA inh RFP	B2AR ag	T cruzi repl
Cc1cc(C(F)F)n2nc(C(=O)NCc3ccccc3F)nc2n1	-22.8	1.7	0.2	x	0.2	x	x	x	-1.4	-4.2
O=C(NCC(=O)N1CCCCCCC1)c1cccc([N+](=O)[O-])c1	x	4.7	-0.4	-4.4	-7.2	-6.2	4.8	0.7	2.3	x
CCCCNCCOCCOc1ccc(F)cc1	-12.7	-5.1	-0.1	-3.7	-31.4	x	x	x	3.8	0.9
Cc1ccc(N(CC(=O)NCc2ccco2)C(=O)CCC(=O)Nc2nccs2)cc1	7.1	-2.5	1.2	-6.4	-3.3	7.0	6.9	-10.5	1.4	-3.5
CCN(CC(=O)Nc1ccc(NC(C)=O)cc1)C(=O)C1CC(=O)N(Cc2ccc(C)cc2)C1 (configuration not stated)	-1.1	-0.5	0.0	-0.2	-5.3	11.6	13.7	2.0	1.5	-6.0
COc1cc(C(=O)O)ccc1OC(C)=O	1.0	1.8	0.1	2.4	0.3	x	x	x	0.8	-12.2
Cc1ccc(NC(=O)CCCCCC2NC(=O)NC2C)cc1 (configuration not stated)	-4.6	-2.9	-0.3	-1.2	5.2	5.2	4.7	-11.1	-0.4	2.4
O=C(CCNS(=O)(=O)c1ccccc1C(F)(F)F)NCCCSc1ccccc1	3.8	0.4	0.0	-8.0	0.0	-18.3	-49.8	-12.3	-1.9	-15.6
COc1ccc(OC)c(NC(=O)CCCNC(=O)c2ccc(Cl)cc2)c1	-1.3	-6.5	0.5	-3.6	-8.3	1.0	6.2	0.1	0.8	3.6
Cn1c(=O)cc(Nc2ccc(Cl)cc2)[nH]c1=O	-2.9	-0.9	-0.5	1.4	x	5.0	11.4	3.1	-0.7	4.3
Cc1ccc(CSc2nnc(-c3ccc4c(c3)OCO4)o2)cc1	-5.0	3.7	-0.7	1.4	3.6	x	x	x	-6.8	3.0
CC1(C)C(c2ccc(Cl)cc2)=[N+]([O-])C2(CCCC/C2=N\O)N1O (configuration not stated)	9.6	-0.4	1.0	-3.0	x	x	x	x	2.5	-6.8
Cc1nnc(SCC(=O)NC2CCCCC2)n1C1CCCCC1	-19.0	0.1	0.2	-4.3	-4.4	x	x	x	-0.2	5.1
Cc1cccc(-c2noc(-c3ccccc3C(=O)NCc3ccco3)n2)c1	-44.1	9.9	-1.4	1.9	0.6	-33.3*	-4.9*	2.1*	6.8	-4.2
CC(C(=O)Nc1cc([N+](=O)[O-])ccc1Cl)N1CCN(c2ccc(O)cc2)CC1 (configuration not stated)	-0.8	11.3	0.0	-1.7	x	x	x	x	-11.0	-7.3
COc1ccc(CC(=O)Nc2ccc(S(=O)(=O)Nc3cc(C)on3)cc2)cc1	-0.1	4.9	-0.2	1.5	x	x	x	x	0.5	-4.0
O=C(O)/C=C/C(=O)Nc1ccc2c(c1)C(=O)c1ccccc1C2=O	9.3	0.6	-5.3	-0.5	96.7*	-35.2*	-7.4*	-6.5*	4.9	-3.2
Fc1ccc(C(CNC(=S)NC2CCCCC2)N2CCOCC2)cc1 (configuration not stated)	-7.5	0.3	1.0	0.6	-1.6	4.4	-5.2	1.0	4.7	-0.7
COc1nc(-c2ccccc2)cc(-c2ccc(OC)c(OC)c2)n1	42.1	7.8	-1.3	-11.5	-1.3	x	x	x	0.8	x
Brc1ccc(-c2noc(COc3ccc4ccccc4c3)n2)o1	-4.1	-1.9	-0.5	-8.0	x	-5.6	-20.5	-1.7	1.4	-6.1
Cc1cc(N2CC(C(=O)O)CC2=O)ccc1Br (configuration not stated)	-0.3	-6.5	-0.5	x	x	x	x	x	1.0	-11.6
CCCCn1c(SCC(=O)c2ccccc2)nc2ccsc2c1=O	1.2	1.0	-0.2	2.6	-4.5	-14.6	-16.6	-16.3	-14.3	5.5
Cn1/c(=N/N=C/c2ccc(Cl)c([N+](=O)[O-])c2)sc2ccccc21	-1.0	4.1	-0.3	-3.6	x	x	x	x	-9.9	10.0
CCC(O)(CC)C(=O)NN(C(=O)Nc1csc2c1CCCC2)c1ccccc1	-8.2	1.6	-1.2	0.6	-1.3	x	x	x	6.9	-21.7
Cc1ccccc1CNC(=O)c1ccccc1C(=O)O	2.9	-3.2	0.6	-2.6	-7.3	x	x	x	1.9	-3.4
Cc1cc(/C=C2\SC(=O)N(C)C2=O)c(C)n1-c1cccc(C(=O)O)c1	-1.3	2.9	-0.6	-4.0	81.6*	-1.9	-3.6	1.0	13.0	9.0
Cn1cccc1Cc1nnc(SCC(=O)Nc2ccccc2)n1-c1ccc(F)cc1	1.0	3.1	0.0	-2.7	18.7	-2.1	5.0	2.3	-10.9	-2.1
Cc1cccc(Nc2c3c(nc4ncnn24)CCC3)c1	27.2	0.6	0.5	0.9	-14.1	3.0	3.5	-2.2	-3.5	-12.7
N/C(=N\OC(=O)CC1CCCCC1)c1ccncc1	0.2	4.0	0.2	-1.6	-20.1	x	x	x	2.0	-8.2
CC(C)c1ccc(/C=C/C(=O)Nc2nn[nH]n2)cc1	3.3	4.0	-0.9	x	46.4	x	x	x	x	-15.3
O/N=C/c1cc2ccccc2n1Cc1ccccc1F	-2.6	5.1	0.1	x	-1.8	-11.0	1.4	-1.1	-0.5	-4.9
CCc1ccc2nc(N3C(=O)c4oc5ccccc5c(=O)c4C3c3ccc(OC)c(OC)c3)sc2c1 (configuration not stated)	-9.5	3.7	-0.3	x	-1.7	x	x	x	x	-10.0
Oc1ccc(C[C@H]2CNCCN2CCCCC2CCCCC2)cc1	-2.0	-2.5	u	8.6	7.9	x	x	x	36.1	13.0
CC(C)=CCCC(C)CN1CCC(n2nccc2NC(=O)c2cccnc2)CC1 (configuration not stated)	-17.6	3.4	-0.5	-0.4	-0.4	4.4	11.8	0.9	5.2	44.2
Cc1ccc(C(=O)NC(=S)Nc2cc(-c3nc4ccccc4s3)ccc2C)cc1	4.5	5.1	-0.1	-1.8	28.0	x	x	x	0.0	12.6
COc1ccc(CNC(=O)CN(C(=O)CCC(=O)Nc2nccs2)c2ccc3c(c2)OCO3)cc1	-2.6	-0.7	-0.5	-9.2	-8.2	1.8	4.8	-2.8	-7.4	3.0
COCCCn1c(SCC(=O)Nc2ccccc2)nnc1-c1ccncc1	11.3	-3.1	-0.2	-1.7	-6.2	x	x	x	-6.5	-6.0
COc1ccc(C(=O)NCc2ccc3c(c2)OCO3)cc1S(=O)(=O)N(C)Cc1ccccc1	-2.5	0.0	-0.2	-0.7	-12.7	x	x	x	-1.4	24.7
Cc1ccc(-c2nn(C)c(=O)c3ccccc23)cc1S(=O)(=O)NCCO	7.2	-1.9	-0.2	3.6	-16.3	x	x	x	-5.3	-11.9
CC(=O)NS(=O)(=O)c1cccnc1Nc1ccc(Cl)c(Cl)c1	0.7	-3.2	-0.3	-3.2	97.9*	x	x	x	0.6	-1.9
Cc1noc(C)c1S(=O)(=O)Nc1ccc(C(=O)NCc2ccccc2)cc1	-1.3	4.1	0.0	x	-4.6	-1.9	-13.4	-0.7	-2.0	1.2
C#CCOCCOCCOCCNc1nc(N2CCN(C(=O)[C@H](CCCCN)n3cc(CN)nn3)CC2)nc(N2CCN(C(=O)[C@H](CCC(=O)O)n3cc(CN)nn3)CC2)n1	x	x	-0.4	-0.2	-0.3	15.6	18.9	2.6	5.4	x
Cc1cccc(NC(=O)c2ccc(S(=O)(=O)N3CCCCC3C)cc2)n1 (configuration not stated)	-6.1	-3.7	-0.4	3.1	-3.7	-5.4	-9.7	0.9	-3.7	-7.0
CCC1(c2ccccc2)NC(=O)N(CC(=O)NNC(=O)COc2ccc(Cl)cc2C)C1=O (configuration not stated)	x	-2.8	0.5	1.7	-2.4	-2.8	-18.1	15.7	-1.4	x
COC(=O)C1C(=O)C2=C(CC1C)NC(C)=C(C(=O)OC1CCCC1)C2c1ccc(N(C)C)cc1 (configuration not stated)	39.9	-2.0	-0.7	x	40.8	x	x	x	-7.7	34.9
COc1ccccc1-c1cnn2c(NC3CCCC3)cc(C)nc12	-8.2	-0.8	0.0	5.2	0.8	-12.9	-9.9	-13.0	-2.8	26.4
Cc1cccc(OCC(=O)N2CCN(C(=O)CCC3CCCC3)CC2)c1	3.9	2.9	1.1	2.1	-2.2	x	x	x	0.8	0.4
COC(=O)Cn1ncc2c3ccccc3n(Cc3ccccc3)c2c1=O	5.7	-0.9	0.3	-4.8	20.6	x	x	x	-7.8	-5.3
CN(C)CCNc1nc(-c2ccccc2)c2c(c1C#N)CC(C)(C)OC2	7.1	6.1	1.1	-10.1	x	9.0	7.5	-0.3	3.0	20.0
N#Cc1ccc(C(=O)Nc2nc(SCc3ccc(Cl)cc3)n[nH]2)cc1	5.6	7.2	0.7	3.8	27.1	-29.0	-33.1	7.1	-3.8	25.5
CCN(CC)C(=O)Nc1ccc(Br)cc1	-19.5	4.3	-0.3	-2.3	-2.3	-2.6	0.1	-1.3	-2.6	-12.1
CCNc1nc(NCC)n2c(SCC(=O)Nc3ccccc3Cl)nnc2n1	6.9	x	-0.1	-4.3	x	6.1	8.9	-0.7	-7.2	-8.0
CCOC(=O)C1(Cc2cccc(Cl)c2)CCCN(C(=O)CCN2CCCC2=O)C1 (configuration not stated)	7.7	-1.7	-0.2	x	-8.0	-0.7	-3.6	-0.4	-3.2	2.5
O=C(O)c1cccc(NC(=S)NC(=O)c2ccc3ccccc3c2)c1	11.1	4.8	-8.8	x	8.4	-11.5	-20.4	0.2	17.2	-15.3
N#CC1=C(N)Nc2ncnn2C1c1ccccc1 (configuration not stated)	0.7	-5.2	0.1	-7.9	1.1	x	x	x	x	3.4
Cn1c(CC(=O)Nc2ccc(Cl)c(Cl)c2)nnc1SCC(=O)Nc1nccs1	1.6	i	1.1	-12.6	0.6	x	x	x	-11.0	9.7
CC(/C=N/NC(=O)Cc1cccs1)=C\c1ccco1	-25.7	1.6	0.5	-3.1	-9.2	x	x	x	4.4	-0.5
O=C(NCc1cc(F)ccc1F)C1CCC(=O)N(C2CCCCCC2)C1 (configuration not stated)	-8.0	-2.5	0.4	-3.5	3.6	10.6	2.2	2.3	8.4	-8.8
CN(CC1CCCN(CCc2ccc(Cl)cc2)C1)C(=O)c1ccc2nc[nH]c2c1 (configuration not stated)	0.5	4.7	0.4	-4.6	-1.4	4.9	5.8	1.0	8.5	44.6
O=C(Nc1ccc(Cl)cc1)N1CCC(c2ccccc2)C1 (configuration not stated)	5.9	-0.1	-1.3	6.1	x	-54.7	-80.1	-34.6	0.2	13.1
CCN(C(=O)c1cccnc1SC)C12CC3CC(CC(C3)C1)C2	-12.4	-5.6	1.1	1.9	0.6	-22.0	-40.2	-7.2	7.7	12.5
COc1cc(NC(=O)COC(=O)CNC(=O)c2ccc(Cl)cc2)c(C)cc1[N+](=O)[O-]	-6.1	2.6	0.0	2.1	-12.5	x	x	x	10.4	-11.8

Only part of the results is shown, so the mix of outcomes need not match the whole.
